Arbovirus anti: antivirals against arbovirus infection, primary screen, cell-based, full library, 10K replicate subset | arbovirus infection cell-based antiviral screen | inhibition, % at 10 µM | hit rate 0.37% among 200,000;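 active means inhibition from about 30%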;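 further: bluetongue infection of BSR cells; cell survival read as ATP light after 72 h; 0% = infected wells without compound and 100% = uninfected wells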
Mtb betalactam: beta-lactam sensitization of Mtb H37Rv, H37Rv | M. tuberculosis H37Rv growth with meropenem, percent inhibition; hits of this screen are not shown here | inhibition, % at 25 µM | hit rate 0.27% among 330,000;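 active means about 74% or more and at least 40 points above the plate without the antibiotic, then above 30% in a dose series; inconclusive means first-round hits that could not be retested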;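 further: growth measured after seven days incubation then overnight dye step; 0% = bacteria only wells and 100% = bacteria with antibiotic; twin plates without the antibiotic show which effects depend on it; some results filed as inactive read as strong as hits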
Mtb H37Rv: M. tuberculosis H37Rv growth inhibitors, H37Rv strain (AID 1626); M. tuberculosis H37Rv growth inhibition; higher % means a stronger effect; inhibition, % at 10 µM, or IC50 in µM where a hit was titrated; hit rate 0.95% among 220,000;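 active means confirmed in a dose series; inconclusive means inhibition above 80% but not taken into the dose series; inactive means below 80% or under 30% at every dose of the series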;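 further: bacteria incubated seven days before Alamar blue readout; 0% = bacteria only wells and 100% = bacteria with antibiotic wells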
RecA splice inh: Mtb RecA intein splicing inhibitors, primary screen, biochemical, fluorescence, HTS; Protein RecA (Mycobacterium tuberculosis (strain ATCC 25618 / H37Rv)), P9WHJ3; cell-free RecA intein splicing; inhibition, %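 (about 9 µM by stock and volumes)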; hit rate 0.75% among 290,000; AID 2221, 2009; in the data active means inhibition above about 30%; inconclusive means no clear call, values can overlap the other calls;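 further: 0% = vehicle wells and 100% = reference inhibitor control wells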
Target sequence (P9WHJ3 whole entry, looked up, canonical isoform): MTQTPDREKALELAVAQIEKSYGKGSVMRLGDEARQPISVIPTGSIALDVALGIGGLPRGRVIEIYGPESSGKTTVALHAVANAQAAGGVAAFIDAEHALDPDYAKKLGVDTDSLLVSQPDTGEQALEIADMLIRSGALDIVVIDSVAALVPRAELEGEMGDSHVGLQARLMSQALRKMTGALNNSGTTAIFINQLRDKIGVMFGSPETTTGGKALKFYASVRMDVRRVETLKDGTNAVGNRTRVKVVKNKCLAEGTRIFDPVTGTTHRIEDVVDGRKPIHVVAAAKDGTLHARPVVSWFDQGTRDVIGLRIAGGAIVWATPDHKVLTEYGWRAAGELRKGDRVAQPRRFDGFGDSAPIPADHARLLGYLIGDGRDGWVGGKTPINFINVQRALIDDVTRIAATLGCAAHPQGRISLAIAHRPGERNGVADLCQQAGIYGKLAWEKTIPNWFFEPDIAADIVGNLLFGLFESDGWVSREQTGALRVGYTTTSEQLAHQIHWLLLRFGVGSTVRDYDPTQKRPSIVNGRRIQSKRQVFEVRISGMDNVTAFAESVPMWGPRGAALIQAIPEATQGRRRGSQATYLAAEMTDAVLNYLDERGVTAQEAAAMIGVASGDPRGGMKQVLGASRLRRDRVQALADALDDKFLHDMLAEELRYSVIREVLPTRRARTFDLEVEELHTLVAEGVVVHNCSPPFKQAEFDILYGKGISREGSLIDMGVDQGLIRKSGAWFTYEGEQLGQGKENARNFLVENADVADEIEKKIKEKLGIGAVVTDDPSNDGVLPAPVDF
YopH inh: YopH tyrosine phosphatase inhibitors, primary screen, biochemical, fluorescence Ex485/Em525. inhibition, %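 (about 10 µM by stock and volumes)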. AID 898, 2007. YopH tyrosine phosphatase [Yersinia enterocolitica]. hit rate 0.16% among 140,000;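 active means inhibition of 50% or more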;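 further: controls were vehicle for no effect and minimum signal wells for full effect; inactives centre near -20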
Arbovirus anti repeat: second read-out of Arbovirus anti, no call of its own (marks repeat the call); inhibition, %; measured here: 10K subset replicate screen; many hits read low in the repeat;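 first of two repeat runs on a subset; 0% = infected and 100% = uninfected wells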
Starred values were filed as active, the others as inactive; ? = inconclusive; nt = no result given. Some of the compounds tested; the hit share may differ from the screen's.

SMILES	Arbovirus anti	Mtb betalactam	Mtb H37Rv	RecA splice inh	YopH inh	others
Cc1c(C)c2c(OCC(=O)NCc3ccncc3)cc3c(c2oc1=O)CCC(C)(C)O3	nt	2	nt	-0.6	nt
CCOC(=O)C[C@H]1c2ccc(C(F)(F)F)cc2S(=O)(=O)N1C(C)(C)C	nt	8	-6%	-5.6	nt
CCNC(=S)NNC(=O)c1cc(-c2cc(C)ccc2C)nc2ccccc12	-15	-5	0%	3.6	-18
COc1ccc(-c2noc(CCC(=O)NCCCN3CCN(c4ccc(F)cc4)CC3)n2)cc1	-5	1	8%	-0.2	nt
COc1ccc(C2c3ccc4ccccc4c3Oc3ncn(CCCN(C)C)c(=N)c32)cc1 (stereo not drawn)	nt	99	nt	11	nt
COc1ccc(/C=C/C(=O)OC(C)C(=O)c2ccccc2)cc1OC (stereo not drawn)	nt	-1	nt	-2.0	nt
COc1ccc(CC(=O)NCc2ccc3c(c2)OCO3)cc1	-12	9	48%	0.0	-5
COC(=O)c1ccc(Cl)c(NC(=O)CSc2nnc(-c3ccncc3)o2)c1	nt	-13	nt	-2.8	nt
CC1SC(c2ccccc2)N(CC(O)c2ccc([N+](=O)[O-])cc2)C1=O (stereo not drawn)	10	0	9%	2.9	nt
Cc1cccc(OCCCC(=O)Nc2ccc(S(=O)(=O)Nc3onc(C)c3C)cc2)c1C	-4	-4	-9%	-0.8	-13
O=c1cc(C(F)(F)F)[nH]c(=S)n1-c1ccccc1	nt	-1	nt	3.1	nt
COc1ccccc1N1CCN(C2CCN(S(=O)(=O)c3ccc(NC(C)=O)cc3)CC2)CC1	4	-2	3%	nt	nt
CN(C)/C=C(\C#N)C(=O)Nc1ccc(O)cc1F	3	0	-9%	-1.4	nt
CCCCn1nc2cc(C(=O)NC[C@@H]3CCCO3)ccc2c1OCC	-1	2	-13%	-1.4	-23
N#C/C(=C\c1cc2c(cc1Br)OCO2)c1ccc(C(=O)O)cc1	nt	0	nt	2.4	nt
Cc1cc(=O)oc2cc(OC(=O)c3cncc(Br)c3)ccc12	-2	56	67%	-1.2	nt
Cc1cccc(-n2c(O)c(C=Nc3ccccc3O)c3ccccc3c2=O)n1	nt	2	-6%	-17	nt
Cc1ccc2sc(NC(=O)C3CC3)nc2c1C	nt	23	nt	-0.2	nt
CCOc1ncccc1C(=O)OC(C)C(=O)NC(=O)NC1CCCCC1 (stereo not drawn)	6	1	2%	0.7	nt
COc1ccc(-n2c(N)c(C(=O)Nc3c(C)n(C)n(-c4ccccc4)c3=O)c3nc4ccccc4nc32)cc1	nt	14	4%	-0.1	nt
O=C(Nc1ccccc1C(F)(F)F)N1CCC(n2c(=O)[nH]c3ccccc32)CC1	1	2	-3%	-2.6	-11
Cc1ccccc1CN1CCc2c(OCC(=O)N3CCCc4ccccc43)cccc2C1=O	-31	1	34%	16	-7
Cc1cc(C)n2ncc(S(=O)(=O)c3ccccc3)c2n1	7	-8	-2%	0.1	nt
Cc1ccc(NC(=O)CCCC(=O)O)c(Br)c1	-4	-6	-5%	nt	-20
Cc1cc(C)n2nc(CC(=O)NC3CCCCCC3)nc2n1	5	6	-12%	2.4	-30
C/C(=N/NC(=O)CC(=O)N/N=C(\C)c1ccc([N+](=O)[O-])cc1)c1ccc([N+](=O)[O-])cc1	nt	0	-10%	0.7	nt
COc1cccc(CNC(=O)c2ccccc2N)c1	3	-4	12%	15	4
O=C(CN1CCN(C(=O)c2ccco2)CC1)Nc1ccc(F)cc1F	nt	2	nt	1.1	nt
CN1CCN(CCCNC(=O)c2ccc(NC(=O)C3=CSCCO3)cc2)CC1	nt	4	nt	-4.7	nt
C=CCNC(=S)N1CCC(C(=O)c2ccc(Cl)cc2)CC1	nt	-5	nt	-3.0	nt
Cc1cccc(NC(=O)/C(=C\c2ccc([N+](=O)[O-])o2)NC(=O)c2ccc(Cl)cc2)c1	-3	9	52%	nt	-24
CCN(Cc1ccncc1)C(=O)c1ccccc1NS(=O)(=O)c1ccc(F)cc1	6	-8	-5%	-0.3	nt
Cc1ccc(/C=C2\NC(=S)NC2=O)cc1[N+](=O)[O-]	-1	3	8%	2.5	nt
Cc1cc(C)n(CC(=O)N2CCc3ccccc32)c(=O)c1C#N	nt	-3	nt	1.1	nt
CC1Cc2ccccc2N1C(=O)CSc1nc(N)cc(=O)[nH]1 (stereo not drawn)	0	nt	-3%	nt	-17
C/C(CC(=O)N1CCN(C=O)CC1)=N\NC(=O)c1cc2ccccc2cc1O	-24	1	-1%	-39	-14

Gathered by group, those above containing a COOH group.
SMILES	Arbovirus anti	Mtb betalactam	Mtb H37Rv	RecA splice inh	YopH inh	others
N#C/C(=C\c1cc2c(cc1Br)OCO2)c1ccc(C(=O)O)cc1	nt	0	nt	2.4	nt
Cc1ccc(NC(=O)CCCC(=O)O)c(Br)c1	-4	-6	-5%	nt	-20

Further entries:
SMILES	Arbovirus anti	Mtb betalactam	Mtb H37Rv	RecA splice inh	YopH inh	others
CCc1ccc(NC(=S)N(Cc2cccc(Br)c2)CC2CCC(C(=O)O)CC2)cc1 (stereo not drawn)	13	-2	1%	2.9	nt
O=C1CC(/C=C/c2ccccn2)=Nc2ccccc2N1	-9	11	-5%	2.4	nt
O=C(O)CSc1cc(C(=O)c2ccccc2O)cn2c(=O)c3c4c(sc3nc12)CCCC4	nt	nt	-16%	-4.6	nt
CCCOC(=O)c1ccc(NC(=O)CCOc2ccccc2)cc1	1	98	0.62µM*	4.3	-17
CCOc1ccccc1NC(=O)C(OC(=O)c1ccccc1O)c1ccccc1 (stereo not drawn)	-3	0	0%	-0.8	-16
CC(C)[C@@H]1CC[C@@H](C)c2c(-c3ccccc3)n[nH]c21	-32	92	-2%	10	-21
O=C(NCC(c1ccco1)N1CCOCC1)c1ccc(Cl)cc1 (stereo not drawn)	nt	-13	nt	0.7	nt
CCOP(=O)(NC12CC3CC(CC(C3)C1)C2)NC12CC3CC(CC(C3)C1)C2	nt	6	nt	1.6	nt
O=C(CCN1CCCCCC1)c1ccccc1	-2	99	1%	nt	-20
CCCOc1ccc(-c2nn(-c3ccccc3)cc2/C=C2\SC(=S)N(C3CCS(=O)(=O)C3)C2=O)cc1 (stereo not drawn)	7	10	-3%	2.7	-36
O=C(/C=C/c1cc([N+](=O)[O-])ccc1OC(F)F)Nc1cccc([N+](=O)[O-])c1	nt	-10	6%	0.9	nt
CC1CC(=O)N(CC(=O)Nc2cccc(F)c2)c2ccccc2S1(=O)=O (stereo not drawn)	nt	1	nt	0.4	nt
Cc1cnc2c(C(=O)O)cnn2c1	14	-4	0%	-7.5	nt
CCOc1ccc(-c2nn[nH]n2)cc1	4	4	-3%	2.6	-51
COc1cc(C(=O)N/N=C/c2cn(Cc3ccccc3)c3ccccc23)ccc1O	nt	0	nt	3.3	nt
COC(=O)C(C)Oc1cc(OC(C)C(=O)OC)c2c(C)c(Cl)c(=O)oc2c1 (stereo not drawn)	-4	44	-1%	2.6	nt
Cc1nc(Nc2ccc(Cl)cc2Cl)sc1C(=O)Nc1ccccc1	-25	95	21%	5.2	-35
Cc1ccccc1Cn1nc(C)c(NC(=O)C2(C)CC2(Cl)Cl)c1C (stereo not drawn)	4	-2	-7%	-6.6	-28
COCCn1nnnc1C(c1cc2cc(C)ccc2[nH]c1=O)N1CCc2ccccc21 (stereo not drawn)	16	-2	-12%	8.9	-18
Cc1ccc2oc3c(c(=O)c2c1)C(c1cccc(O)c1)N(c1ccccn1)C3=O (stereo not drawn)	5	-1	-3%	0.3	-21	Arbovirus anti repeat=-12
Cc1ccc(C(=O)N2C(=O)C(c3ccccc3)Oc3ccccc32)cc1 (stereo not drawn)	nt	-9	-6%	2.5	nt
CC(C)C(=O)N1CCN(c2ccc(NC(=O)c3ccc4c(c3)OCCO4)cc2)CC1	6	-3	-6%	-0.6	nt
CCc1ccccc1NC(=O)CC(NCc1ccccc1)C(=O)O (stereo not drawn)	nt	3	nt	-2.4	nt
Cc1ccc(C)c(CN2C(=O)c3ccccc3S(=O)c3ccc(C(=O)N4CCN(c5ccccn5)CC4)cc32)c1 (stereo not drawn)	-8	31	?	17	nt
Cc1ccccc1NS(=O)(=O)c1cc(C(=O)N2CCCC2)ccc1Cl	nt	?	nt	2.9	nt
COc1cc(Cn2c(-c3nonc3N)nc3ccccc32)ccc1C	-17	-4	-6%	-3.4	-24
COc1cc(F)ccc1S(=O)(=O)n1c(C)nc2ccccc21	nt	-21	nt	2.1	nt
O=C(O)c1ccc(-n2cccc2/C=C2/NC(=O)N(c3ccccc3)C2=O)cc1	nt	-4	3%	2.6	nt
COCCn1c(-c2ccccc2F)n[nH]c1=S	1	-1	-5%	-2.9	1
CCc1nc(SCc2ccc(Br)cc2)n[nH]1	nt	0	nt	0.3	nt
CCN=C(NCC)SC1CC(=O)N(CCc2ccccc2)C1=O (stereo not drawn)	nt	-7	nt	-0.2	nt
O=C1NCCN(Cc2ccc(Cl)c(F)c2)C1CC(=O)N1CCCCO1 (stereo not drawn)	-2	-8	2%	-0.6	nt
O=C(CN1C(=O)CCC1=O)Nc1cccc2c1C(=O)NC2=O	6	5	2%	-9.5	nt
COc1ccc(N=c2scc(-c3ccc(S(=O)(=O)N4CCOCC4)cc3)n2CCCO)cc1	0	nt	7%	nt	-8
c1ccc(Nc2nc(-c3cccnc3)cs2)nc1	5	0	-5%	-1.9	-29
Cc1ccc(NC(=O)CSc2n[nH]c(-c3ccncc3)n2)c(C)c1	nt	0	nt	2.0	nt

Some of these compounds in order of molecular weight, lowest first:
SMILES	Arbovirus anti	Mtb betalactam	Mtb H37Rv	RecA splice inh	YopH inh	others
CCc1nc(SCc2ccc(Br)cc2)n[nH]1	nt	0	nt	0.3	nt
O=C(CN1C(=O)CCC1=O)Nc1cccc2c1C(=O)NC2=O	6	5	2%	-9.5	nt
COc1cc(F)ccc1S(=O)(=O)n1c(C)nc2ccccc21	nt	-21	nt	2.1	nt
CCN=C(NCC)SC1CC(=O)N(CCc2ccccc2)C1=O (stereo not drawn)	nt	-7	nt	-0.2	nt
Cc1ccc(NC(=O)CSc2n[nH]c(-c3ccncc3)n2)c(C)c1	nt	0	nt	2.0	nt
O=C1NCCN(Cc2ccc(Cl)c(F)c2)C1CC(=O)N1CCCCO1 (stereo not drawn)	-2	-8	2%	-0.6	nt
O=C(O)c1ccc(-n2cccc2/C=C2/NC(=O)N(c3ccccc3)C2=O)cc1	nt	-4	3%	2.6	nt

Next results follow.
SMILES	Arbovirus anti	Mtb betalactam	Mtb H37Rv	RecA splice inh	YopH inh	others
COc1cc(NS(=O)(=O)c2ccc(NC(=O)c3cccnc3)cc2)ncn1	nt	-5	nt	-2.7	nt
CCOc1ccc(/C=N/Nc2ccc(C(F)(F)F)cc2[N+](=O)[O-])cc1O	-9	8	14%	6.8	-3
Cc1cc(C)c(S(=O)(=O)c2cccc(Cl)c2)c(Cl)n1	19	-9	-7%	-0.7	nt
C=CCNC(=S)N/N=C1\CCS(=O)(=O)c2ccccc21	nt	4	nt	-1.3	nt
CSc1nc(N)nc(SCC(=O)OC(C)C)c1C#N	-8	7	0%	1.2	-28
